# Jurkat NFkB inh = inhibitors of the PMA/ionomycin-induced NF-kB reporter in Jurkat cells; actives 0.53% (n = 330,000); inhibition, % at 4 µM; PMA/ionomycin-induced NF-kB luciferase reporter, luminescence
# Gli-Sufu antag = blocks Gli-Sufu signaling in a luciferase reporter | Sufu-KO-LIGHT fibroblasts, Gli luciferase reporter luminescence | inhibition, % at 5 µM | actives 0.74% (n = 340,000) | AID 588413;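 active means inhibition above about 55%, limit read from the data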;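 further: 0% = DMSO-treated cells and 100% = wells with medium but no cells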
# HKDC1 inhibitor = HKDC1 (human) hexokinase inhibition; Q2TB90; recombinant HKDC1, G6PDH/diaphorase resazurin coupled fluorescence; inhibition, % at 20 µM; actives 0.16% (n = 340,000);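 active means inhibition above about 35% when tested at 20 µM, limit read from the data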;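 further: plate controls were DMSO wells with enzyme for no effect and DMSO wells lacking enzyme for full effect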
#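 Incubation: 90 min at room temperature in dark / Material: recombinant HKDC1 (HK5) hexokinase enzyme, produced in-house / Quantity: enzyme 5 µg/mL final / Compound: one dose of 20 µM, 1% DMSO / Reagent: glucose and ATP substrates / Buffer or medium: Tris pH 8.0 buffer with MgCl2, Tween-20, BSA, BME / Technique: resorufin fluorescence at 613 nm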
# SENP8 inh = inhibitors of human SENP8 protease. Q96LD8. purified SENP8, Z-RLRGG-aminoluciferin cleavage, luminescence. inhibition, % at 10 µM. actives 1.2% (n = 330,000)
# Target sequence (Q96LD8 whole entry, looked up): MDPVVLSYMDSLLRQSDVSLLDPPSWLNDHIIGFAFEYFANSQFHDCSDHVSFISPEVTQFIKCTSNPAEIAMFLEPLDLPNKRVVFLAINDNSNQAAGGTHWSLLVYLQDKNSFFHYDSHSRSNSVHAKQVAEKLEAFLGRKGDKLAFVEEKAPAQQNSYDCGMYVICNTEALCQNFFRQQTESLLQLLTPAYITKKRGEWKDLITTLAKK
# 697 NFkB inh = lowers PMA/ionomycin-induced NF-kB signal in 697 B cells; 697 B-cell NF-kB luciferase reporter, 16 h; inhibition, % at 4 µM; actives 0.33% (n = 330,000); AID 435022; in the data active means inhibition above about 35%
# SENP7 inh = blocks the human protease SENP7; Q9BQF6; recombinant SENP7, Z-RLRGG-aminoluciferin luminescence, 40 min; inhibition, % at 5 µM; actives 1.5% (n = 330,000); AID 434973;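 active means inhibition above about 50% at the single test dose, limit read from the data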;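 further: plate controls were DMSO with enzyme for no effect and no enzyme buffer wells for full effect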
# Target sequence (Q9BQF6 706-1050 limits assumed): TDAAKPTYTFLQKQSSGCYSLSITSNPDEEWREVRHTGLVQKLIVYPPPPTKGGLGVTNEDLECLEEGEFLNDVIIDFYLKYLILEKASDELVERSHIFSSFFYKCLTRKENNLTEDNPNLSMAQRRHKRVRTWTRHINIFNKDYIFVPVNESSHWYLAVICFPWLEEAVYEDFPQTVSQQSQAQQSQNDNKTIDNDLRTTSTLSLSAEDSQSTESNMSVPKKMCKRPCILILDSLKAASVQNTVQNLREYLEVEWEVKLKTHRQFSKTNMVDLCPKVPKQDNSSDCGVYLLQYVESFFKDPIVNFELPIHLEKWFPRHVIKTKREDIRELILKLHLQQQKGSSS
# UBC13 polyUb = human UBC13 polyubiquitination inhibition; AID 485273; P61088; actives 0.47% (n = 330,000); inhibition, % at 20 µM; UBC13 polyubiquitin chain formation, TR-FRET; in the data active means inhibition above about 45%, passing the limit was not always enough
# Target sequence (P61088 whole entry, looked up): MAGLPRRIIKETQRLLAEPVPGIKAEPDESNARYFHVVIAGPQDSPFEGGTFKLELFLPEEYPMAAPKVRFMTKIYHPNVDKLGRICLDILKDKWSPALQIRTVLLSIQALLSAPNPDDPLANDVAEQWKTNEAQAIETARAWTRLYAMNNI
# Numbers without * were called inactive; . = not tested or not shown. Unless noted, no stated cut-off is given here; in the data, active means inhibition above about 50%; inactive means the rest. A portion of the library. The share of hits here may be higher or lower than overall.
item | structure | Jurkat NFkB inh | Gli-Sufu antag | HKDC1 inhibitor | SENP8 inh
1 | CC(C)Cn1c(N)c(C(=O)NCC2CCCO2)c2nc3ccccc3nc21 (stereo not given) | 7 | 40 | 14 | 76*
2 | N#Cc1c(NCCO)nc(NCc2ccccc2)c2c1CCN(Cc1ccccc1)C2 | -24 | 3 | 2 | 13
3 | N#Cc1cc2cc3c(cc2nc1N1CCOCC1)OCO3 | -18 | -8 | 3 | -9
4 | Clc1ccc(C2Nc3ccccc3-n3cccc32)cc1 (stereo not given) | -10 | -17 | 5 | 4
5 | COC(=O)CSc1nc(N2CCOCC2)c2c(c1C#N)CC(C)(C)N(C)C2 | -14 | 6 | 8 | -6
6 | COCCn1c(=N)c(C(=O)NCCc2ccc(OC)cc2)cc2c(=O)n3cccc(C)c3nc21 | -8 | 13 | -9 | 1
7 | COc1ccc(-c2cc(C(F)(F)F)n3ncc(C(=O)NCc4ccco4)c3n2)cc1 | -21 | 5 | 0 | -14
8 | Cc1ccc(C)n1-c1cccc(N)c1 | -12 | . | . | 6
9 | CCCOC(=O)C1=C(C)NC2=C(C(=O)C(C(=O)OC)C(C)C2)C1c1ccc(N(CC)CC)cc1 (stereo not given) | -9 | 24 | 4 | 2
10 | CCN(CC)c1ccc(C2C(C(=O)OCCOC(C)C)=C(C)NC3=C2C(=O)CCC3)cc1 (stereo not given) | 16 | 2 | -3 | -4
11 | CCCCn1c(NC(C)=O)c(C#N)c2nc3ccccc3nc21 | 7 | 7 | 5 | 34
12 | CC1(C)CC(=O)c2cc(OCC(=O)NCc3cccnc3)ccc2O1 | -10 | -3 | -9 | -8

item | 697 NFkB inh | SENP7 inh | UBC13 polyUb
1 | 13 | -2 | -7
2 | -47 | 20 | -17
3 | -3 | -5 | 3
4 | -14 | -3 | 16
5 | -5 | -6 | 5
6 | -13 | 4 | 3
7 | -9 | -20 | -6
8 | -4 | 4 | -15
9 | 2 | 11 | 6
10 | 7 | 1 | 5
11 | 14 | 66* | -1
12 | 6 | -5 | 0

# Further compounds follow.
item | structure | Jurkat NFkB inh | Gli-Sufu antag | HKDC1 inhibitor | SENP8 inh
13 | O=c1[nH]c2cc3c(cc2cc1CN(Cc1nnnn1CC1CCCO1)C1CCCC1)OCO3 (stereo not given) | -3 | -14 | -2 | 1
14 | CCn1c(C)cc2c(c1=O)C(c1ccccc1Br)C(C#N)=C(N)O2 (stereo not given) | -12 | -1 | -3 | 6
15 | CCCCCCNC(=O)C(C#N)c1nc2ccccc2nc1N1CCCC1 (stereo not given) | 17 | 8 | 1 | 6
16 | CN1CCc2c(sc3c2C(=O)NC(c2ccccn2)N3)C1 (stereo not given) | -6 | 4 | -4 | -3
17 | COC(=O)c1c(C#N)c(N)nc2c1CCC2 | 4 | 5 | 10 | -9
18 | Cc1ccccc1NS(=O)(=O)c1ccc2[nH]cc(C(=O)N(C)Cc3ccco3)c(=O)c2c1 | 12 | 2 | 0 | 3
19 | CNC(=O)c1c(N)sc2c1CCCCC2 | -15 | . | . | -5
20 | CC1(C)CC(=O)C2=C(C1)Nc1ccccc1N=C2 | -12 | . | . | 6
21 | CCc1nnc(NC(=O)CSc2nc3c(cc2C#N)CCCC3)s1 | -48 | -80 | 2 | 2
22 | CN1CCc2c(sc(/N=C/c3ccco3)c2C(N)=O)C1 | -11 | 8 | -1 | 2
23 | CCOC(=O)/C=c1\s/c(=C\c2ccccc2OC)c(=O)n1CC(=O)N1CCOCC1 | -6 | 3 | -3 | -2
24 | CC1CCc2cc(F)ccc2N1C(=O)c1cc2nc(-c3ccco3)cc(C(F)(F)F)n2n1 (stereo not given) | -8 | -3 | 4 | -10

item | 697 NFkB inh | SENP7 inh | UBC13 polyUb
13 | -5 | 6 | -4
14 | 23 | -1 | 9
15 | 14 | 11 | -6
16 | -6 | 4 | -34
17 | 22 | -2 | 7
18 | 10 | -1 | -4
19 | -3 | 5 | -4
20 | 0 | 16 | -12
21 | -199 | -2 | 14
22 | -7 | 6 | -10
23 | 2 | 2 | -4
24 | 8 | -7 | -6

# From entry 11 as far as 24, copied from above:
item | structure | Jurkat NFkB inh | Gli-Sufu antag | HKDC1 inhibitor | SENP8 inh
11 | CCCCn1c(NC(C)=O)c(C#N)c2nc3ccccc3nc21 | 7 | 7 | 5 | 34
12 | CC1(C)CC(=O)c2cc(OCC(=O)NCc3cccnc3)ccc2O1 | -10 | -3 | -9 | -8
13 | O=c1[nH]c2cc3c(cc2cc1CN(Cc1nnnn1CC1CCCO1)C1CCCC1)OCO3 (stereo not given) | -3 | -14 | -2 | 1
14 | CCn1c(C)cc2c(c1=O)C(c1ccccc1Br)C(C#N)=C(N)O2 (stereo not given) | -12 | -1 | -3 | 6
15 | CCCCCCNC(=O)C(C#N)c1nc2ccccc2nc1N1CCCC1 (stereo not given) | 17 | 8 | 1 | 6
16 | CN1CCc2c(sc3c2C(=O)NC(c2ccccn2)N3)C1 (stereo not given) | -6 | 4 | -4 | -3
17 | COC(=O)c1c(C#N)c(N)nc2c1CCC2 | 4 | 5 | 10 | -9
18 | Cc1ccccc1NS(=O)(=O)c1ccc2[nH]cc(C(=O)N(C)Cc3ccco3)c(=O)c2c1 | 12 | 2 | 0 | 3
19 | CNC(=O)c1c(N)sc2c1CCCCC2 | -15 | . | . | -5
20 | CC1(C)CC(=O)C2=C(C1)Nc1ccccc1N=C2 | -12 | . | . | 6
21 | CCc1nnc(NC(=O)CSc2nc3c(cc2C#N)CCCC3)s1 | -48 | -80 | 2 | 2
22 | CN1CCc2c(sc(/N=C/c3ccco3)c2C(N)=O)C1 | -11 | 8 | -1 | 2
23 | CCOC(=O)/C=c1\s/c(=C\c2ccccc2OC)c(=O)n1CC(=O)N1CCOCC1 | -6 | 3 | -3 | -2
24 | CC1CCc2cc(F)ccc2N1C(=O)c1cc2nc(-c3ccco3)cc(C(F)(F)F)n2n1 (stereo not given) | -8 | -3 | 4 | -10

item | 697 NFkB inh | SENP7 inh | UBC13 polyUb
11 | 14 | 66* | -1
12 | 6 | -5 | 0
13 | -5 | 6 | -4
14 | 23 | -1 | 9
15 | 14 | 11 | -6
16 | -6 | 4 | -34
17 | 22 | -2 | 7
18 | 10 | -1 | -4
19 | -3 | 5 | -4
20 | 0 | 16 | -12
21 | -199 | -2 | 14
22 | -7 | 6 | -10
23 | 2 | 2 | -4
24 | 8 | -7 | -6

# The listing continues:
item | structure | Jurkat NFkB inh | Gli-Sufu antag | HKDC1 inhibitor | SENP8 inh
25 | COc1ccc(CNc2oc(-c3cccc4ccccc34)nc2C#N)cc1 | 20 | -10 | -2 | -1
26 | Cc1ccc2nc3ccc(N4CCN(C)CC4)nn3c(=O)c2c1 | -94 | -9 | 3 | 1
27 | COCCCn1c(CCC(=O)O)ccc1-c1cccs1 | -3 | 2 | 1 | 0
28 | CCCC1C(C#N)=C(N)Oc2cc(C)n(C)c(=O)c21 (stereo not given) | 7 | -6 | 0 | 2
29 | COC(=O)CCc1c(C)c(C(=O)c2ccco2)c2ccccn12 | 5 | -15 | -1 | 6
30 | Cc1csc(NC(=O)c2sc3nc(-c4cccs4)ccc3c2N)n1 | -26 | -12 | -5 | 2
31 | Nc1c(C(=O)NCC2CCCO2)c2nc3ccccc3nc2n1-c1ccccc1 (stereo not given) | 11 | 10 | 0 | 15
32 | CC(C)OC(=O)CC(=O)c1sc2nc3c(cc2c1N)CN(C)CC3 | -9 | 4 | 10 | 1
33 | CC(C)Cn1c2nc3ccccc3nc2c2c(=O)n(CCN3CCOCC3)cnc21 | -5 | -1 | -8 | -2
34 | O=C1Nc2ccc(S(=O)(=O)N3CCCCCC3)c3cccc1c23 | -6 | 3 | 14 | -9
35 | O=C(Nc1cnn(Cc2ccccc2)c1)c1cc2nc(-c3ccco3)cc(C(F)(F)F)n2n1 | 7 | 9 | -2 | 2
36 | Cc1c(C2Nc3ccccc3NC3=C2C(=O)CC(C)(C)C3)cnn1C (stereo not given) | 0 | 3 | -7 | 0

item | 697 NFkB inh | SENP7 inh | UBC13 polyUb
25 | 14 | 4 | 20
26 | -54 | 3 | 10
27 | 0 | 19 | -6
28 | 3 | 0 | 3
29 | 21 | -1 | 7
30 | -71 | 9 | -6
31 | 17 | 6 | -9
32 | 5 | -8 | -49
33 | 3 | -3 | -6
34 | -12 | 10 | 1
35 | 24 | 6 | -3
36 | -21 | 2 | -29

# Later entries:
item | structure | Jurkat NFkB inh | Gli-Sufu antag | HKDC1 inhibitor | SENP8 inh
37 | Cc1oc(C)c2c(=O)ccc3c(c12)OC(N)=C(C#N)C3c1ccccc1Cl (stereo not given) | 8 | 6 | 6 | 2
38 | Cn1c(-c2c(N)n(C3CCCC3)c3nc4ccccc4nc23)nc2ccccc21 | -6 | 9 | 2 | -9
39 | Cc1ccc(-c2cc(C(=O)NCCCn3ccnc3)c3cc(Br)ccc3n2)o1 | -4 | -18 | 6 | -7
40 | O=C(O)CCNc1ccc2c(c1)OCCO2 | -2 | 44 | 4 | 7

item | 697 NFkB inh | SENP7 inh | UBC13 polyUb
37 | 14 | 1 | -26
38 | -13 | -6 | 13
39 | 20 | -1 | 3
40 | 1 | 15 | -6
